Compound activity from PubChem.
Menin MLL FP FL: qHTS Assay for Inhibitors Targeting the Menin-MLL Interaction in MLL Related Leukemias: Competition With Fluorescein Labeled MLL-derived Peptide. Fluorescence polarization, fluorescein-MLL peptide displacement from menin. FP activity change, % at 61.4 µM. 290,000 tested, under 10 active; inconclusive = falling polarisation curve, or a change in total fluorescence; inactive = total fluorescence flat and polarisation flat or rising; no compound was filed as active; the % refers to the polarisation; negative = inhibition;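 note: % of control where 0% means no effect; inhibitors lower the polarisation; unlabelled MLL peptide was the positive control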
gsp agonist: qHTS for Agonist of gsp, the Etiologic Mutation Responsible for Fibrous Dysplasia/McCune-Albright Syndrome: qHTS; gsp mutant cells, cAMP HTRF, 30 min; control for the full effect not named in the record; Potency, µM (series often up to 76.9 µM), inactives show at the top dose activation (cAMP increase), most hits filed as activators; 0.13% of 340,000 active; AID 624287, 2012; active = well fitted activation curve with a large enough effect; inconclusive = small, poorly fitted or top-dose-only effect, or another doubt; inactive = no such curve, though single readings can be large or run the other way; cell line not stated here;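 note: phosphodiesterase inhibitor Ro 20-1724 added with compounds to block cAMP breakdown; potency is the fitted concentration of half-maximal effect; nearly all actives have a fitted effect of over 60% in size; about a fifth of the inactives were tested at one dose only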
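Cells stably selected in G418 were plated at 2000/well, grown 16-24 hr, then given compounds in DMSO with the PDE inhibitor […] (300 uM solution added) for 30 min at 37C; cAMP was read by HTRF.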
TRPV1 potentiator: HTS Assay for Compounds that Act as Potentiators of the Vanilloid Receptor 1. 0.02% of 320,000 active. AID 540277, 2011. Transient receptor potential cation channel subfamily V member 1 (Homo sapiens), Q8NER1. TRPV1-expressing cells, Fluo-8 calcium influx, capsaicin EC20 potentiation; host cell line not named in the record; control for the full effect not named in the record. potentiation, % at 8.33 µM; active means potentiation above 80%; inconclusive means 30% to 80%; inactive means below 30%; note: 0% is about no effect
Target sequence (Q8NER1 whole entry, looked up): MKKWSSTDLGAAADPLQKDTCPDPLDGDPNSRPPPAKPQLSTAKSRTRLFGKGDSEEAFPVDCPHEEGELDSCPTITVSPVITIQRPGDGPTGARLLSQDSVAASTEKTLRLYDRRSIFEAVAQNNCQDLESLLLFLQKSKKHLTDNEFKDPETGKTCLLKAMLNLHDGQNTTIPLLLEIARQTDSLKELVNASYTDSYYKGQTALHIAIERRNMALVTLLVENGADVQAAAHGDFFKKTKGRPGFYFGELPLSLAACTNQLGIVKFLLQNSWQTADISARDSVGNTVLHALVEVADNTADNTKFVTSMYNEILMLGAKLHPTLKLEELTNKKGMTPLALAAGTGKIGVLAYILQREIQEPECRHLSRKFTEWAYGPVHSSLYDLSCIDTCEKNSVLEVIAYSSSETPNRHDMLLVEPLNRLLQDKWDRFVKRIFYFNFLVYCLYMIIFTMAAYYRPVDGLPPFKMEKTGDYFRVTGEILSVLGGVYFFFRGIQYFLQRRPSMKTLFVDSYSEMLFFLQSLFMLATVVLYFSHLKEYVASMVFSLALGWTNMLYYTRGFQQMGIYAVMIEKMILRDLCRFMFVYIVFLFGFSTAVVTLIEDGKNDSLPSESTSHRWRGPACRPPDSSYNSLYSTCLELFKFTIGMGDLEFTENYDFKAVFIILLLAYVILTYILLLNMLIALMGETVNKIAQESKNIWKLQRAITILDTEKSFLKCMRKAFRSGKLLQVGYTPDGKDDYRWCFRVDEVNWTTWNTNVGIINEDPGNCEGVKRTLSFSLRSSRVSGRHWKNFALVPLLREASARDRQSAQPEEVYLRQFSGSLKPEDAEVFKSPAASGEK
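Fluo-8 calcium influx in TRPV1-expressing cells, kinetic read (ex 480/em 520 nm). Compound added and read 3 min for agonist activity, followed by capsaicin at EC20 final and 2 min further read for enhancement.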
D2 potentiator: Beta-Arrestin HTS for Positive Allosteric Modulators of the Human D2 Dopamine Receptor: Potentiators; D(2) dopamine receptor (Homo sapiens), P14416; DiscoveRx D2 beta-arrestin cells, luminescence, 90 min; 100% = 57 uM dopamine signal; potentiation, % (test concentration not listed); 0.23% of 360,000 active; active = potentiation of 50% or more; inconclusive = 30% to 50%; inactive = 30% or less;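 note: compound concentration not given in the record; tested on top of an EC20 dose of dopamine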
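PathHunter D2 cells, attached overnight at 37 deg C, received compound in DMSO plus dopamine at EC20 (50 nM final) for 90 min at 37 deg C. Beta-arrestin recruitment was read as luminescence after 1 h with detection reagent at ambient temperature.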
gsp antagonist: qHTS for Antagonists of gsp, the Etiologic Mutation Responsible for Fibrous Dysplasia/McCune-Albright Syndrome: qHTS; gsp-mutant cells, cAMP HTRF, 30 min; control for the full effect not named in the record; Potency, µM (top dose mostly 76.9 µM), without a hit: top-dose activity change, negative = inhibition, most hits filed as inhibitors; 0.4% of 340,000 active; AID 624288, 2012; active = falling curve of any shape with a large fitted effect; inconclusive = falling curve, mostly with a smaller effect; inactive = flat or rising curve; cell line not stated here;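 note: intracellular cAMP measured with PDE inhibitor Ro 20-1724 present during compound exposure; potency is the fitted concentration of half-maximal effect; % is set by controls: 0 for no effect and ±100 for the full control effect; nearly all actives have a fitted effect of over 65% in size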
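Cells, 2000/well, grown 16–24 h in DMEM 10% FBS with 0.5 mg/ml G418, then compounds plus […] (300 uM addition stock), 30 min at 37C. cAMP read by HTRF (cAMP-d2 and anti-cAMP antibody-K in lysis buffer) after 30 min RT.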
Sfp PPTase inh: qHTS Assay for Inhibitors of Bacillus subtilis Sfp phosphopantetheinyl transferase (PPTase); 4'-phosphopantetheinyl transferase ffp (Bacillus subtilis), Q9F4F7; Biochemical Sfp PPTase activity, qHTS; 3.5% of 310,000 active; Potency, µM, for the others: max response, negative = inhibition, usual class: inhibitors; active = well fitted inhibition curve with a large enough effect; inconclusive = small, poorly fitted or top-dose-only effect, or another doubt; inactive = no such curve, though single readings can be large or run the other way;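 note: the enzyme is Sfp with the accession as filed and its product quenches rhodamine fluorescence; potency is the fitted concentration of half-maximal effect; 0% = enzyme reaction without inhibitor and -100% = no enzyme wells; top concentration of the series not given in the record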
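Step 1, compound plus 15 nM Sfp-PPTase, 15 min, room temperature. Step 2, add rhodamine-CoA (5 uM) and BHQ-2-YbbR (12.5 uM). Step 3, read 525/598 nm fluorescence at 0 and 30 min.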
ClpP mod: qHTS Assay for Activators of ClpP | 1.9% of 340,000 active | purified B. subtilis ClpP, FRET peptide cleavage, 20 min | Potency, µM (top dose mostly 57.5 µM), without a hit: top-dose activity change, negative = active; active = well fitted falling curve with a large enough effect; inconclusive = small, poorly fitted or top-dose-only effect; inactive = no such curve, though single readings can be large or run the other way; note: potency is the fitted concentration of half-maximal effect; the source files actives as falling curves though it sought activators and does not explain the sign; nearly all actives have a fitted effect of over 65% in size; many hits overshoot -100%
Target sequence (P80244 whole entry, looked up): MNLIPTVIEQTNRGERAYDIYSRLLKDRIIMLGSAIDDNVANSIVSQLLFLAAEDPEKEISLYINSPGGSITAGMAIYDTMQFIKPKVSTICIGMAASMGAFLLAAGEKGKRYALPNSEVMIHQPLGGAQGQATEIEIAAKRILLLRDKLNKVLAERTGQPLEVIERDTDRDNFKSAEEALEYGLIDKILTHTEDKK
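Purified B. subtilis ClpP, 10 microg/mL final in Tris/HCl pH8 with KCl, BSA, glycerol and Tween-20, cleaved an Abz/nitrotyrosine-quenched decapeptide. Fluorescence (ex 320, em 430) was read at 0 and 20 min at room temperature. Delta was normalized to 5.8 microM ADEP and DMSO/no-enzyme controls.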
Numbers without * were called inactive; ? = inconclusive; . = no result given; & = joins results of further samples; [ ] = dose if it differs, or a comment. Rows were taken by chance, and some 5.1% of all compounds hit somewhere here.

Values run as follows: ClpP mod	gsp agonist	D2 potentiator	TRPV1 potentiator	Sfp PPTase inh	Menin MLL FP FL	gsp antagonist
- COc1ccc(CCNC(=O)C2CCN(c3nccc(C)n3)CC2)cc1
  ?	-61%	-3	-1	3%	9.0	5%
- Oc1cccc(C2c3[nH]c4ccccc4c3CCN2Cc2ccoc2)c1 (stereo not given)
  -12%	-42%[inhibitor]	-23	2	5%	-1.6	-3%
- Clc1ccc(/C=C/c2ncc[nH]2)c(Cl)c1
  3.9%	13%	-8	-13	8%	-1.9	-6%
- CCCCn1c(CN2CCOCC2)nc2c1c(=O)n(C)c(=O)n2C
  -0.2%	-60%[inhibitor]	-1	7	11%	4.8	0%
- O=C(NCCCN1CCOCC1)c1cc(-c2ccccc2)on1
  -2.2%	?	-7	-1	8%	2.6	4%
- O=c1cc(-c2ccccc2Cl)oc2ccc([N+](=O)[O-])c(O)c12
  -1.5%	-17%	-11	13	22%&4%	0.6[94.6 µM]	5%
- Oc1cc(O)cc(/C=C/c2ccc(O)c(O)c2)c1
  4.8%	.	5	3	40µM*	-0.2&1.0	-18%
- Cc1csc(Nc2ccc(Cl)cc2)[n+]1-c1ccc(Cl)cc1
  .	15%[15.4 µM]	-8	9	-5%	0.0	3%
- COC(=O)c1cn(NC(=O)c2cccc(N(C)C)c2)c(=O)c2ccccc12
  -4.3%	6%	-16	-4	0%	3.4	-16%
- N#CC1=C2SCN(c3ccccc3)CN2C(=O)CC1c1cccs1 (stereo not given)
  -1.1%	16%	9	8	0.79µM*	?	-7%
- Cc1ccc(OCC(=O)NC(=S)Nc2cccc(NC(=O)c3ccccc3Cl)c2)cc1
  1.7%	-2%	-15	8	-10%	6.2	-15%
- O=C(COc1ccccc1[N+](=O)[O-])Nc1ccc2c(c1)OCO2
  3.0%	-1%	-2	-20	9%	1.8	-6%
- COc1ccccc1-c1cc(C(=O)N2CCCCC2)no1
  -12%	?	-5	.	10%	0.2	-3%
- Cc1[nH]c2ccc(F)cc2c1CCN(Cc1cccnc1)C(=S)Nc1cccc(F)c1
  .	-2%	-8	12	19%	0.8	?
- COc1ccccc1NC(=O)CSc1nnc(CNC(=O)c2ccco2)o1
  1.6%	-15%	-7	15	13%	0.6	9%
- COc1cc(/C=C(\C#N)C(=O)NCC2CCCO2)ccc1OCCC(C)C (stereo not given)
  .	3%	-1	-33	4%	-0.4	-14%
- CCOC(=O)c1cc(-c2cccnc2)nn1-c1ccccn1
  -4.4%	-10%	-1	-4	9%	2.0	1%
- O=C(CCN1CCOCC1)Nc1cccc(Br)c1
  0.0%	-15%	-14	15	-13%	-2.2	8%
- O=C(Nc1nc2ccc(Cl)cc2s1)c1cccc(N2C(=O)CCC2=O)c1
  35µM*	-7%	-12	6	.	.	3%
- S=C(Nc1ccccc1)Nc1ccc2cn[nH]c2c1
  -8.5%	-21%	11	-2	1%	10	-1%
- Cc1c(NS(=O)(=O)c2cc(C(=O)N3CCCC(C)C3)ccc2Cl)c(=O)n(-c2ccccc2)n1C (stereo not given)
  .	11%	-5	.	.	.	3%
- CCN1CCN(S(=O)(=O)c2ccc(Cl)c(C(=O)N(C)C3CCCCC3)c2)CC1
  -0.3%	-19%	-14	.	.	.	.
- O=C(COc1ccc(Br)cc1CO)Nc1ccccc1F
  10µM*	10%	-8	-25	0%	2.2	2%
- CCCCNC(=O)c1c(CSc2ccc(Cl)cc2)noc1C(=O)NCc1ccccc1
  -1.1%	.	-66	.	.	.	-5%
- CC(C)(C)c1ccc(O)c(N=Cc2cc3c(cc2[N+](=O)[O-])OCO3)c1
  .	-6%	4	-17	-24%	0.2	2%
- CCCC(=NC(C)CC)C1=C(O)CC(c2ccccc2)CC1=O (stereo not given)
  .	4%[15.4 µM]	-6	13	13%	8.9	-7%
- COc1cccc(-c2nc(CS(=O)(=O)CC(=O)NCCCN3C(C)CCCC3C)c(C)o2)c1 (stereo not given)
  -7.9%	?	-33	0	4%	1.1	11%
- COC(=O)c1cccc(CSC(=S)N2CCCC2)c1
  3.5%	4%	-1	-10	-9%	-1.3	-5%
- Cc1ccc(SCC(=O)N/N=C/c2ccco2)cc1
  -1.0%	-2%[15.4 µM]	-34	27	14%	-0.2	0%
- CN(Cc1ccccc1)C(=O)C1CCN(S(C)(=O)=O)CC1
  .	14%	-2	-1	17%	-0.8	0%

The results go on.
Values run as follows: ClpP mod	gsp agonist	D2 potentiator	TRPV1 potentiator	Sfp PPTase inh	Menin MLL FP FL	gsp antagonist
- CN(C(=O)COC(=O)c1cccc(NS(=O)(=O)c2ccc(F)c(F)c2)c1)C1CCS(=O)(=O)C1 (stereo not given)
  -4.6%	-47%	-18	-3	13%	2.4	5%
- NC(=O)c1ccccc1NC(=O)N1CCOCC1
  -0.7%	-1%[15.4 µM]	-7	3	10%	-1.2	-10%
- COc1ccc(Cl)cc1N1C(=O)/C(=C\c2sccc2C)N=C1SCC(=O)NC1CC1
  -0.1%	-3%	-21	7	6%	7.3	-26%
- Cc1nnc(SCC(=O)N2CC(=O)Nc3ccccc32)n1-c1ccccc1
  -5.7%	-41%[inhibitor]	-19	4	8%	3.0	-2%
- COc1ccc(-n2c(-c3ccc(Cl)cc3)n[nH]c2=S)c(OC)c1
  -16%	-20%	-14	.	.	.	.
- CCC(O)CNc1nc(SC)nc2sc3c(c12)CCN(C)C3 (stereo not given)
  31%	13%	-6	-8	7%	1.4	8%
- Cc1ccc(C(=O)O)cc1N1CCCC1=O
  .	-34%[15.4 µM]	-12	-8	-12%	-0.8	.
- O=C(Nc1cc(Cl)ccc1Cl)N1CCN(C(=O)Nc2cc(Cl)ccc2Cl)CC1
  -16%	-45%[inhibitor]	-12	.	.	.	0%
- Cc1ccccc1NC(=O)NC(N)=O
  -3.5%	?	-44	1	15%	2.7	5%
- O=S(=O)(c1ccc(Br)cc1)c1cnc2ccccc2n1
  .	-7%	-9	7	7%	2.8	-8%
- Cc1c(C)c2c(OCC(=O)NCc3cccnc3)cc3c(c2oc1=O)CCC(C)(C)O3
  4.8%	.	-31	-20	3%	2.5	-14%
- CO/C=C\C=C/c1nnn(-c2ccc(Cl)cc2)n1
  .	2%	2	0	4.5µM*	4.0	-4%
- C=CCn1nc2ccccc2c1OCCO
  -16%	23%	-8	1	.	.	4%
- CCN1CCN(c2cc(C)c3cc(NC(=O)CCC(=O)Nc4ccc(OC)c(OC)c4)ccc3n2)CC1
  4.5%	3%	-19	2	9%	0.2	-4%
- CC(C)c1ccc(S(=O)(=O)N2CCN(C(=O)CN3C(=O)c4ccccc4C3=O)CC2)cc1
  .	?	-1	.	.	.	-4%
- COc1cc(CN2CCC(Oc3cc(C(=O)NC4CC4)ccc3OC)CC2)cc(OC)c1
  -0.4%	15%	-30	-5	5%	.	5%
- CCOc1ccccc1N(CC(=O)Nc1ccccc1C(=O)N1CCOCC1)S(C)(=O)=O
  -0.7%	-70%[inhibitor]	15	3	7%	.	7%
- Cc1ccc(N/N=C/c2c(C)c(C#N)c(=O)n(C)c2O)cc1C
  .	-4%[15.4 µM]	11	0	13µM*	?	-10%
- CC(C)(C)NC(=O)CSc1nc2cc(S(=O)(=O)N3CCCCC3)ccc2o1
  0.3%	-2%	-9	.	.	.	-17%
- COC(=O)[C@@H]1C[C@@]2(O)[C@@H](O)[C@@H](O)[C@@H](O)C[C@H]2N1CC1CCCCC1
  -4.4%	.	-6	19	16%&1%	-1.0&0.4	-4%
- CCCc1ncc(C(O)(c2ccccc2)c2ccc(C)cc2)n1C (stereo not given)
  -1.8%	-41%[inhibitor]	-33	7	16%	8.6	-1%
- Fc1ccc2c(c1)Sc1ccc(Cl)cc1CC2N1CCN(CCC2OCCO2)CC1 (stereo not given)
  .	?	-25	.	.	.	9%
- CC(OC(=O)Cn1ccccc1=O)C(=O)Nc1cc(Cl)cc(Cl)c1 (stereo not given)
  -2.1%	-47%[inhibitor]	-4	.	.	.	-1%
- Cc1cccc(OCCCCCNCCO)c1
  0.1%	-34%[inhibitor]	-10	19	0%	0.8	8%
- Cc1ccc2c(=O)cc(C(=O)NC3CCS(=O)(=O)C3)oc2c1C (stereo not given)
  -3.6%	?	-10	1	3%	4.3	-14%
- O=C(Cc1coc2ccc3ccccc3c12)N1CCc2ccccc21
  21%	0%	-1	3	8%	7.4	-2%
- COC(=O)[C@H](C)[C@@H]1C[C@@]1(C)[C@@H](NC(=O)OCc1ccccc1)c1ccccc1
  -6.4%	.	-5	-11	10%&27%	0.2&-3.8	0%
- Cc1ccc(-n2c(Cl)c(Cl)nc(Cl)c2=O)cc1
  -3.8%	-15%[15.4 µM]	-27	21	?	-4.5	5%
- O=C(Cn1cc(C(F)(F)F)ccc1=O)N/N=C/c1ccc(Cl)c(Cl)c1
  1.3%	2%	-14	11	-9%	-2.7	-28%
- COc1ccc(OC)c(CN2CCN(C(=O)c3cccc(S(=O)(=O)Nc4ccc(C)cc4)c3)CC2)c1
  -1.9%	-59%[inhibitor]	-16	6	.	.	-31%

Next part
Values run as follows: ClpP mod	gsp agonist	D2 potentiator	TRPV1 potentiator	Sfp PPTase inh	Menin MLL FP FL	gsp antagonist
- O=C(Cn1cnc2c(oc3ccccc32)c1=O)NCC1CCCO1 (stereo not given)
  -3.2%	7.1µM*	2	-2	8%	2.6	29%
- O=C(Nc1ccc(C2CC2(Cl)Cl)cc1)c1ccccc1Br (stereo not given)
  -1.6%	-15%	17	2	?	-0.9	-16%
- COc1ccc(CNC(=O)CCc2ccc(S(=O)(=O)N3CCCCCC3)cc2)cc1
  -0.8%	30%	1	-28	.	.	-10%
- CC1(C)OC2OC3C(CN)OC(c4ccccc4)OC3C2O1 (stereo not given)
  -2.5%	-44%	-26	.	.	.	6%
